Tgondii IFNg = T. gondii growth inhibition with IFN-gamma, primary screen, cell-based. activity change, negative = inhibition, %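 (about 20 µM by stock and volumes)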. 69,000 compounds, 3.8% hits. Toxoplasma gondii growth in IFN-gamma-treated host cells; active compounds read low; reference of the scale not given here;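 active means below -70%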;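 further: host cells are HeLa cells infected with Toxoplasma gondii; parasite growth read as luciferase light; one replicate is shown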
An asterisk follows results filed as active; i = inactive. Only part of the results is shown; the hit share may differ from the screen's.

SMILES | Tgondii IFNg
CCCNC(=O)N1CC2(CCN(C(=O)Cc3cccnc3)CC2)c2c([nH]c3cc(OC)ccc23)[C@@H]1CO | 15.2
CN1C(=O)c2cc(NC(=O)c3cnccn3)ccc2OC[C@H]2O[C@H](CC(=O)N[C@H]3CCN(Cc4ccccc4)C3)CC[C@@H]21 | -22.2
CO[C@H](CN(C)S(=O)(=O)c1ccc(C)cc1)[C@H](C)CN([C@H](C)CO)S(=O)(=O)c1cccc(Cl)c1 | 7.8
Cc1ccc(N(C)C(=O)CN2C(=O)CCc3cc(S(=O)(=O)N4CCOCC4)ccc32)cc1 | 66.8
Cc1nc2[nH]nc(C)n2c(=O)c1CC(=O)Nc1ncc(Cc2ccccc2F)s1 | 12.4
CCc1ccccc1NC(=O)C(=O)NCCc1sc(-c2ccc(C)cc2)nc1C | -23.8
CC1(C)CC(N2CCC(CN)C2)CC(C)(C)N1 (stereo unspecified) | 0.2
CCCS(=O)(=O)N1Cc2nccn2CC(Cn2cccn2)C1 (stereo unspecified) | -39.6
CC(C)C(NC1CSCCSC1)c1nccn1C (stereo unspecified) | -2.0
Cc1cnc(CNC(=O)c2nc(-c3cn(C(C)C)c(C)n3)n3ccccc23)cn1 | 17.1
Cc1ccc(-c2nc(CNC(=O)c3scnc3C)[nH]c2-c2ccccn2)cc1 | -58.1
COCCN1C(=O)N(Cc2ccccc2)C2(CCN(Cc3cnn(C)c3)CC2)C1=O | 10.7

Six entries from above, as a markdown table:
| SMILES | Tgondii IFNg |
| --- | --- |
| Cc1ccc(N(C)C(=O)CN2C(=O)CCc3cc(S(=O)(=O)N4CCOCC4)ccc32)cc1 | 66.8 |
| Cc1nc2[nH]nc(C)n2c(=O)c1CC(=O)Nc1ncc(Cc2ccccc2F)s1 | 12.4 |
| CCc1ccccc1NC(=O)C(=O)NCCc1sc(-c2ccc(C)cc2)nc1C | -23.8 |
| CC1(C)CC(N2CCC(CN)C2)CC(C)(C)N1 (stereo unspecified) | 0.2 |
| CCCS(=O)(=O)N1Cc2nccn2CC(Cn2cccn2)C1 (stereo unspecified) | -39.6 |
| CC(C)C(NC1CSCCSC1)c1nccn1C (stereo unspecified) | -2.0 |

Next section
SMILES | Tgondii IFNg
O=C(C1CCCO1)N1CCCC(c2nc(-c3ccncc3)cc(=O)[nH]2)C1 (stereo unspecified) | -22.4
O=C(NCCc1cccnc1)c1ccn(-c2ccc3ccc(-c4ccc(F)cc4)cn23)n1 | -19.6
CCc1nc(C)sc1C(=O)N[C@H]1C[C@H]2C(=O)NCC(=O)N2C1 | 1.1
CCOC(=O)c1cnc2nc(SC)nn2c1N | 5.8
CN(C)C1CCOC2(CCN(C(=O)c3ccccc3F)CC2)C1 (stereo unspecified) | -1.5
CC(C)n1cnc2c(N3CCOCC3)nc(C3CCN(C(=O)C4(C)CC4)CC3)cc21 | 1.8
Cn1ncc(S(=O)(=O)Cc2ccccc2)c(Cl)c1=O | 9.8
O=C(c1cc2c([nH]c1=O)CCC2)N1CCN(c2ccnc3cc(Cl)ccc23)CC1 | -8.3
CN(CCC1CCCCO1)C1CCN(c2ccc(NC(=O)C3CCCC3)cc2)CC1 (stereo unspecified) | -7.5
CC(=O)Nc1ccc2c(c1)CCC(=O)N2CC(C)C | 16.8
C[C@@H]1CN([C@H](C)CO)C(=O)c2cc(NC(=O)C3CCCCC3)ccc2O[C@@H]1CN(C)C(=O)Nc1ccc(C(F)(F)F)cc1 | -39.6
COc1cccc(S(=O)(=O)Nc2ccc3c(c2)C(=O)N(C)[C@H]2CC[C@H](CC(=O)NCC4CCCCC4)O[C@@H]2CO3)c1 | -10.6

Already shown: entries from further up.
SMILES | Tgondii IFNg
CN(CCC1CCCCO1)C1CCN(c2ccc(NC(=O)C3CCCC3)cc2)CC1 (stereo unspecified) | -7.5
CC(=O)Nc1ccc2c(c1)CCC(=O)N2CC(C)C | 16.8
C[C@@H]1CN([C@H](C)CO)C(=O)c2cc(NC(=O)C3CCCCC3)ccc2O[C@@H]1CN(C)C(=O)Nc1ccc(C(F)(F)F)cc1 | -39.6
COc1cccc(S(=O)(=O)Nc2ccc3c(c2)C(=O)N(C)[C@H]2CC[C@H](CC(=O)NCC4CCCCC4)O[C@@H]2CO3)c1 | -10.6

(listing goes on)
SMILES | Tgondii IFNg
CCOC(=O)Nc1ccc2c(c1)N(C(=O)CN(C)C)c1ccccc1CC2 | 13.4
O=C(C1CCC2(CCN(S(=O)(=O)c3cccc(F)c3)CC2)O1)N1CCCC1 (stereo unspecified) | -6.7
Cc1nnc2c(=O)n(CC(=O)N3CCC(N4CCCCC4)CC3)c3cccnc3n12 | 5.4
Cc1cc(-c2nn(C)c(Cl)c2C2NCCc3[nH]cnc32)no1 (stereo unspecified) | -69.5
Cc1ccc(C(=O)N2CCCn3nnc(CN4CCCCC4)c3C2)cn1 | -0.4
Cc1cc(S(=O)(=O)NCCc2sc(-c3cccc(F)c3)nc2C)ccc1F | -33.5
CC(C)(C)OC(=O)N1CCN(C(=O)OC(C)(C)C)CC1 | -4.9
O=c1ccc2cc(S(=O)(=O)Nc3ccc4c(c3)OCO4)ccc2[nH]1 | i
Cc1ccc(-c2nnc(C3CCCN(C(=O)CCn4cnc5ccccc54)C3)o2)cn1 (stereo unspecified) | 13.6
Cc1noc(C)c1-c1nc(CC(C)C)nn1-c1ccc2c(c1)OCO2 | -8.0
O=C(CCCc1nc(-c2ccccc2)no1)Nc1cccnc1 | 8.8
Cn1cc(C[C@H]2[C@H](O)CCN2C(=O)c2cccs2)cn1 | -1.9
CCOCC1CN(C(=O)C2=CCCC2)Cc2cnn(C)c21 (stereo unspecified) | 0.3
CNc1cc(C)nc(NCc2cc(C)cc3c(C)c(C)[nH]c23)n1 | 14.1
Cc1nc(-c2ccc(Cl)cc2)sc1CCNC(=O)COc1ccccc1F | 17.4
O=C(c1cc(C2CC2)[nH]n1)N1CCCC(Cc2nc3ccccc3[nH]2)C1 (stereo unspecified) | -10.0
O[C@H]1CN(c2ncnc3c2CCNC3)C[C@@H]1N1CCOCC1 | -1.5
CC(C)(C)c1ccc(C(=O)CCCN2CCC(OC(c3ccccc3)c3ccccc3)CC2)cc1 | -86.0*
CN(C)C(=O)C[C@H]1CC[C@@H]2[C@@H](COc3ccc(NC(=O)C4CCCCC4)cc3C(=O)N2C)O1 | 8.3
O=C(c1ccc2c(c1)nnn2C1CCCCC1)N(Cc1ccccn1)CC1CCCO1 (stereo unspecified) | 52.0
C[C@@H]1CCCCO[C@H](CN(C)C(=O)CCCN(C)C)[C@H](C)CN([C@@H](C)CO)C(=O)c2cc(NS(=O)(=O)c3ccc(Cl)cc3)ccc2O1 | -84.8*
Cc1ccc(NC(=O)C(=O)NCCc2csc(-c3ccc(C)cc3)n2)cc1 | 56.5
COc1ccc(C2(Cn3ccnc3-c3cccnc3)CCCC2)cc1 | -16.4
C=CCOC(=O)N1CCC2(CC1)CNC(=O)C2 | 0.1
O=C1C(Oc2ccccc2)C(c2ccc3c(c2)OCO3)N1Cc1ccc2c(c1)OCO2 (stereo unspecified) | -46.8
CC(C)CCN1C(=O)N(CC(C)C)C(=O)C12CCN(C1Cc3ccccc3C1)CC2 | 21.6
c1ccc(-n2cncn2)c(CNC2CSCCSC2)c1 | -0.5
FC(F)(F)c1cc(-c2nsc(N3CCOCC3)n2)cc(C(F)(F)F)c1 | -42.0
COCC1(C(=O)Nc2cccc(NC(=O)c3ccccc3OC)c2)CCC1 | -2.2
Cc1ccc(OCC(=O)NCCc2csc(-c3ccc(Cl)cc3)n2)cc1 | 24.5
Cn1cc(C(=O)N2CCN(c3nc4ccccc4s3)CC2)c2ccccc2c1=O | -15.3
O=C(Cn1cccc1-c1nc(-c2ccccc2)cs1)N1CCC2(CC1)OCCO2 | -3.9
O=C(c1cn(-c2ccccc2)nn1)N1CCNC(c2ccccc2)C1 (stereo unspecified) | 3.5
O=C(Cn1ncc2c(N3CCOCC3)ncnc21)NCc1ccc(F)cc1F | -33.3
O=C(c1cccs1)N1CC(C(=O)N2CCCC2)C2(CCOCC2)C1 (stereo unspecified) | 32.1
Cc1cccnc1Nc1ccc(C2CCN(C(=O)CCn3ncc4c3CCCC4)CC2)nc1 | -55.4
Cc1ccoc1C(=O)N1C[C@@H]2COC[C@]2(COCc2cccnc2)C1 | -3.5
Cc1noc(C)c1-c1nc(CSc2n[nH]c(=O)n2-c2cccnc2)no1 | -23.1
CN(C)CCOCC12CCCOC1CCN(C(=O)c1cccn1C)C2 (stereo unspecified) | -48.0
O=S1(=O)CC(O)C(S(=O)(=O)Cc2cccc(C(F)(F)F)c2)C1 (stereo unspecified) | 11.9
C[C@@H]1CN([C@H](C)CO)C(=O)c2cccc(NC(=O)Nc3ccc(F)cc3)c2O[C@H]1CN(C)S(=O)(=O)c1ccc(Cl)cc1 | -4.3
COc1cc2c(cc1C1CC(=O)Nc3cc(O)c(C)cc31)CCC2 (stereo unspecified) | 0.0
NC1CCCN(C(=O)c2ccc3n[nH]nc3c2)CC1 (stereo unspecified) | 2.6
COc1ccc(-c2nccn2-c2ccc(Cl)cc2)c(OC)c1OC | 1.9
CCCC#Cc1ccc([C@H]2[C@@H](CO)N(C(C)=O)[C@H]2CN(C)C(=O)C2CC2)cc1 | -19.1
Cc1nn(CCO)cc1CN1CCN(Cc2ccc(Cl)cc2)CC1 | 3.7
CN(CCC(=O)O)c1cccc(C(F)(F)F)c1 | -3.5
Cc1ccc2c(C)c(C(=O)NCCCc3cn[nH]c3)oc2c1 | 48.5
O=C(N/C=C/c1ccsc1)Nc1cc(C(F)(F)F)cc(C(F)(F)F)c1 | -67.8
Cc1cc(C(F)(F)F)nn1CC(=O)N1CCCC1c1cccc(F)c1 (stereo unspecified) | 30.7
CC(C)C(NC(=O)C12CC3CC(C1)CC(n1ncnn1)(C3)C2)c1ccc(F)cc1 (stereo unspecified) | 0.7
O=C(N1CCN(c2nc3ccccc3s2)CC1)N1c2ccccc2Sc2ccccc21 | -17.8
COc1ccc2c3c([nH]c2c1)[C@@H](CO)N(S(C)(=O)=O)CC31CN(C(=O)Cc2cccnc2)C1 | -7.5
CC(=O)N1CC[C@@H]2C(=O)N(c3ccsc3)CCO[C@@H]2C1 | 2.0
Cc1cccc(-c2ccc([C@H]3[C@@H](CO)N4CCCCN(S(=O)(=O)c5ccccc5F)C[C@H]34)cc2)c1 | -79.9*
CC1(C)C(=O)NCCN1C(=O)CSc1nccc(-c2ccccc2)n1 | -3.6
O=C(O)[C@H]1CN(CCCP(=O)(O)O)CCN1 | 16.0
CCN(CC)c1nc2n(c(=S)n1)CCS2 | -9.9
Cc1cccc(C(=O)N2CCC3(CC2)Nc2cc(F)ccc2-n2cccc23)c1 | 78.6
COc1ccccc1-c1ccc([C@@H]2[C@H](CO)N3CCCCN(C(=O)c4cccnc4)C[C@@H]23)cc1 | -36.9
Later entries.
SMILES | Tgondii IFNg
c1ccc(-c2nc[nH]c2-c2cccn2-c2cccnc2)cc1 | 24.4
O=C(Cn1c(=O)cc(C(=O)N2CCc3ccccc3C2)c2ccccc21)NCc1ccccc1Cl | -9.2
CCCNC(=O)N1[C@@H]2c3cccc(=O)n3C[C@H]1[C@H](CO)[C@H]2C(=O)N1CCC(Cc2ccccc2)CC1 | -7.9
CC(=O)N1CC2(CCN(S(=O)(=O)C3CC3)CC2)C2(CCN(C)C2=O)C1 (stereo unspecified) | 2.9
O=C(c1ccccn1)N1C[C@H]2CN(c3ccsc3)C(=O)[C@H]2C1 | 17.9
CCCN1CCN(c2ncnc3c(-c4ccc(OC)cc4)nsc23)CC1 | 70.3
CCCCC(=O)Nc1ccc(NC(=O)Cc2cnc[nH]2)cc1 | 1.3
COc1ccc(OC)c(NC(=O)NCC(c2cccnc2)c2cn(C)c3ccccc23)c1 (stereo unspecified) | 251.8
N#C[C@@H]1[C@@H](c2ccc(-c3cccc(F)c3)cc2)[C@H](CO)N1C(=O)CN1CCOCC1 | 5.3
CC(C)c1n[nH]c2c1CN(Cc1cc3n(n1)CCNC3)CC2 | 42.4
Cc1nc(-c2ccc(S(=O)(=O)N3CCCN(CCc4ccccc4)CC3)s2)cs1 | -5.5
FC(F)(F)c1ccccc1CCC1CCCN(Cc2ncc[nH]2)C1 (stereo unspecified) | -37.9
O=C(O)C1CC(=O)N(CCCn2cncn2)C1 (stereo unspecified) | 10.3
C[C@@H]1CN([C@@H](C)CO)C(=O)c2ccccc2-c2ccccc2CO[C@H]1CN(C)S(=O)(=O)c1ccc([N+](=O)[O-])cc1 | 10.3
CC(C)SCC(=O)N1Cc2cnc(-c3ccccc3)nc2C1 | 39.4
C[C@@H]1CN([C@H](C)CO)C(=O)c2cc(NC(=O)Cn3cnnn3)ccc2O[C@@H]1CN(C)C(=O)Nc1ccc2c(c1)OCO2 | 5.5
CC(C)Cc1ccc(C(C)c2nnc(-c3ccc(Cl)cc3)o2)cc1 (stereo unspecified) | 42.4
CN(C)CC(=O)N1CCC2OCCCC2(COCc2ccncc2)C1 (stereo unspecified) | 31.3
CC(C)c1ccc(NC(=O)c2csc(Cc3c(Cl)cccc3Cl)n2)cc1 | -84.4*
CC1CCN(CCCNC(=O)c2cn(C(C)c3ccccc3F)nn2)CC1 (stereo unspecified) | -16.6
Cc1cc(C)cc(NC(=O)Cn2c(=O)ccc3cc(S(=O)(=O)N4CCCC4)ccc32)c1 | 1.7
Cc1cc(CC(C)Nc2nc(CCN)nc3sc(C)c(C)c23)n[nH]1 (stereo unspecified) | 3.8
O=C1CC(c2cccnc2)C2(CCN(C(=O)c3ccoc3)CC2)N1 (stereo unspecified) | 41.1
C#CCN(CC=C)C(=O)CC(=O)Nc1ccccc1C | 3.8

3 compounds already listed, sorted by length of the SMILES, high to low:
SMILES | Tgondii IFNg
Cc1cc(C)cc(NC(=O)Cn2c(=O)ccc3cc(S(=O)(=O)N4CCCC4)ccc32)c1 | 1.7
CC(C)Cc1ccc(C(C)c2nnc(-c3ccc(Cl)cc3)o2)cc1 (stereo unspecified) | 42.4
C#CCN(CC=C)C(=O)CC(=O)Nc1ccccc1C | 3.8

(further entries)
SMILES | Tgondii IFNg
CCNC(=O)C1CN(S(=O)(=O)c2ccccc2)CCN1S(=O)(=O)c1ccccc1 (stereo unspecified) | -45.4
Cc1ccc(NC(=O)c2cncc(NS(=O)(=O)c3ccc(Br)cc3)c2)cc1 | -15.7
O=C(NCC(F)F)C1(Oc2ccc(Cl)cc2)CCNCC1 | 0.3
CN(C)CC(=O)N1[C@H](CO)[C@@H](c2ccccc2)C12CN(CC1CCOCC1)C2 | -40.1
Cc1cccc2ncc(C(=O)N3CC(c4cccnc4)C3)c(=O)n12 | 1.1

Source: PubChem (Broad Institute)
